# Screening data deposited in PubChem by several laboratories.
# PrP 5UTR inh = inhibition of PrP 5' UTR reporter expression. inhibition, % (no concentration beside the values). cell-based PrP 5' UTR mRNA reporter, plate reader. 340,000 tested, 0.35% active;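 active = every replicate at 50% or more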;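 also: 0 = median of the neutral control wells; tested in H4 reporter cells; numbers are from one replicate; inactives centre near -14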
# Autofluor counter = flagged as autofluorescent in microsphere protease counterscreen. 360,000 tested, 3.1% active. AID 624483. fluorescence intensity (concentration not given with the values). compound autofluorescence counterscreen, microsphere flow cytometry; active compounds read high;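 active = at least 3 SD above the mean of all compounds, about 16000 in these data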;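 also: 100 nL of 1 mM stock went into each well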
# RN4220 kill = S. aureus RN4220 growth inhibition. AID 1259311. inhibition, % (test concentration not listed). OD600, 16 h. 330,000 tested, 0.33% active;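 active = z-score of -3 or lower and OD600 up to 0.18 on both plates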;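 also: plate controls were untreated cells for no effect and reference antibiotic for full effect; stock transfer was 100 nL into about 80 µL; one replicate is shown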
# Mtb hypoxia rep = Mtb hypoxia fluorescent reporter inhibition. M. tuberculosis hypoxia-regulated fluorescent reporter, fluorescence. 300,000 tested, 0.1% active. fluorescence inhibition, % (no concentration beside the values);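 active = 35 to 45% if threefold the growth effect, above 45% if 1.5-fold the growth effect; inactive = the rest, general growth blockers included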;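 also: wells of about 50 µL received 100 nL stock; 0% = vehicle wells and 100% = reference inhibitor wells; whole bacteria with a GFP reporter of the hypoxia response; strong numbers were not always called active; many hits fall short of the cut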
# ugtP null kill = growth inhibition of S. aureus ugtP deletion strain | S. aureus RN4220 ugtP deletion, OD600 growth, 16 h; some inactives read as strong as hits | growth inhibition, % (concentration not given with the values) | 330,000 tested, 0.54% active;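 active = z-score under -3 and OD600 up to 0.15 on both plates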;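 also: plate controls were untreated wells for no effect and antibiotic for full effect; wells of about 80 µL received 100 nL stock; the first replicate is given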
# BJeLR viability = kills HRASV12-expressing BJeLR cells. BJeLR (HRASV12) viability, CellTiter-Glo ATP luminescence, 48 h; reference of the scale not given here. inhibition, % (test concentration not listed). 300,000 tested, 0.17% active;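 active = replicate mean above 50%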;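 also: 50 nL library stock added to about 25 µL; numbers are from one replicate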
# Mtb hypoxia rep growth = second read-out of Mtb hypoxia rep, no call of its own (marks repeat the call); growth inhibition, %; measured here: M. tuberculosis growth (absorbance);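 0% = vehicle and 100% = reference antibiotic; read after six days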
# Numbers without * were called inactive; · = not tested or not shown.
# Fields: PrP 5UTR inh, Autofluor counter, RN4220 kill, Mtb hypoxia rep, Mtb hypoxia rep growth, ugtP null kill, BJeLR viability
Cc1ccc(CCN2CC(C(=O)NCCCN3CCOCC3)CC2=O)cc1 (stereo not given)
    -30, 3476, 0.7, 6, 14, 5, 2
CC1CCN(S(=O)(=O)c2nnc(NC(=O)COc3ccccc3)s2)CC1
    -11, 5194, 14, 2, -6, 4, 8
Oc1ccc(CC2CC3CCN2CC3)cc1O (stereo not given)
    -12, 2705, -1.1, ·, ·, -8, 4
CCOC(=O)c1ccccc1NC(=O)COC(=O)c1ccc(OCC(=O)N2CCOCC2)c(OCC)c1
    -5, 4044, 5.6, 4, 4, 1, ·
COC(=O)C1=C(C)N(CC2CC2)C(=O)N[C@H]1c1ccccc1
    5, 2915, ·, ·, ·, ·, -6
COC(=O)CC1c2cc(C(F)(F)F)ccc2S(=O)(=O)N1Cc1ccc(OC)cc1 (stereo not given)
    ·, ·, 9.2, 2, 0, 16, ·
CCc1nc2ccccc2c(C(=O)OC2CCCCC2=O)c1C (stereo not given)
    -24, 3391, 2.5, 6, 0, 4, 6
CC1=C(c2ccccc2)C(=S)NC(C)(C)C1
    -6, 4270, -1.2, -3, -5, 10, 0
NNC(=O)c1cc(NS(=O)(=O)c2cccs2)cc(NS(=O)(=O)c2cccs2)c1
    -12, 3498, 4.6, 15, 13, 0, ·
NS(=O)(=O)c1ccc(NN=Cc2ccc[nH]2)c([N+](=O)[O-])c1
    ·, ·, 7.6, 15, 15, 19, ·
CCOc1ccc(CCNC(=O)c2nnn(CC(=O)Nc3ccc(OC)c(OC)c3)c2N)cc1OCC
    -16, 5231, -4.6, -10, -1, -8, 0
CCn1ncc(C2=NOC(C(=O)Nc3c(C)n(C)n(-c4ccccc4)c3=O)C2)c1C (stereo not given)
    -12, 4501, 3.1, ·, ·, 4, 8
CCC(=NCCCN1CCOCC1)c1c(O)n(-c2ccccc2C)c(=O)[nH]c1=O
    -25, 3794, 2.8, -4, 12, -3, 2
CC1CCC2(CC1)NC(=O)N(CC(=O)Nc1ccc(C(N)=O)cc1)C2=O (stereo not given)
    -16, 2957, 4.3, 8, 4, 4, ·
CCCC(=O)Nc1nc(-c2ccc3c(c2)OCCO3)cs1
    -94, 6039, 5.4, 4, 4, 21, ·
O=C(CSc1nnnn1-c1ccccc1)Nc1ccc(N2CCOCC2)cc1
    -15, 3245, -1.0, 5, 1, 1, 6
CCCCN(CCCC)S(=O)(=O)c1ccc(N2CCCC2=O)c([N+](=O)[O-])c1
    -13, 9269, 8.6, 6, 2, 14, 4
CCC(C)(C)NC(=O)C(c1ccc(OC)cc1)N(Cc1ccco1)C(=O)CCC(=O)Nc1cc(C)on1 (stereo not given)
    -8, 4288, 7.9, -2, -3, -2, -2
O=C(c1ccc(Cl)c(Cl)c1)N1CCC(=O)N(C(COCc2ccccc2)Cc2ccccc2)CC1 (stereo not given)
    -15, 3862, 3.3, 19, 8, 2, -6
O=C(NNS(=O)(=O)c1cccc(Cl)c1Cl)c1cccc(S(=O)(=O)N2CCOCC2)c1
    -12, 2079, 5.7, -5, 2, 9, 0
COC(=O)[C@]1(Cc2ccccc2)N[C@H](CN(C)C(=O)NC(C)C)[C@@H]2C(=O)N(C)C(=O)[C@@H]21
    -10, 3442, 1.4, 3, 5, 0, ·
Cc1ccsc1C(=O)OCC(=O)NCc1ccc(Cl)cc1
    -13, 2876, 6.2, 6, -4, 9, ·
CS(=O)(=O)N1CCCC(C(=O)Nc2ccccc2)C1 (stereo not given)
    -3, 3931, -0.6, -3, 16, -4, -3
CC(C)OC(=O)CSc1nc(N)c(C#N)c(-c2cccs2)c1C#N
    -54, 8730, 7.6, -1, -1, -5, -1
CC(CC(=O)C1C(C)C=CCC1(C)C)NNC(N)=O (stereo not given)
    -27, 2295, 7.7, 2, 3, -1, 2
Oc1ccccc1N=NC(=NNc1ccccc1O)c1ccccc1
    ·, ·, -6.2, -1, 0, -30, ·
COc1ccccc1N1C(=O)CC(Sc2ncccc2C(=O)O)C1=O (stereo not given)
    -15, 5239, 1.1, ·, ·, 0, 4
COc1cccc(NC(=S)NN=C2CCC(C(C)(C)C)CC2)c1 (stereo not given)
    -1, 3364, 9.7, 8, -3, 7, 25
COc1ccc(S(=O)(=O)N(C)c2ccc(C(=O)N3CCCCC3)cc2)cc1
    -8, 6115, 3.0, 10, 2, 5, -4
COc1ccccc1CC(=O)N1CCCc2ccccc21
    -13, 3013, 8.6, 6, 9, 3, 3

# Quoted from the results shown (2 entries):
# Fields: PrP 5UTR inh, Autofluor counter, RN4220 kill, Mtb hypoxia rep, Mtb hypoxia rep growth, ugtP null kill, BJeLR viability
O=C(CSc1nnnn1-c1ccccc1)Nc1ccc(N2CCOCC2)cc1
    -15, 3245, -1.0, 5, 1, 1, 6
CCCCN(CCCC)S(=O)(=O)c1ccc(N2CCCC2=O)c([N+](=O)[O-])c1
    -13, 9269, 8.6, 6, 2, 14, 4

# The results go on:
# Fields: PrP 5UTR inh, Autofluor counter, RN4220 kill, Mtb hypoxia rep, Mtb hypoxia rep growth, ugtP null kill, BJeLR viability
CCn1c(C)nc2cc(C#N)ccc21
    -32, 4419, -1.4, -5, -6, 7, -2
O=C(NCCc1ccc(Cl)cc1)C1CCN(C(=O)N2CCOc3ccccc32)CC1
    -17, 6399, 9.5, 4, 6, 10, -4
COC(=O)Cc1c(C)c2ccc(OCC(=O)N3CCC(C)CC3)c(C)c2oc1=O
    -24, 4419, 1.6, 2, -5, 3, 3
COc1cc(CNCC(C)C)cc(Br)c1OCC(=O)Nc1ccccc1
    -9, 9102, -2.9, -1, 0, -14, 2
O=C(CCn1cccc1)NC1CCCc2ccccc21 (stereo not given)
    -9, 3517, 1.5, ·, ·, 5, -7
CCOn1c(=O)c(=O)n(OC)c2ccccc21
    -7, 5868, 3.0, 1, -1, 1, 12
Cc1ccc(S(=O)(=O)N2CCN(C(=O)CCn3cncn3)CC2)cc1C
    1, 3641, 4.8, -3, -4, 8, 4
N#Cc1cc(C(=O)c2cc(Br)ccc2O)cn(C2CC2)c1=O
    -5, 3211, -5.4, 10, 8, 1, -3
O=C(NCc1ccccc1Cl)C1CCN(C(=O)c2sccc2-n2cccc2)CC1
    -19, 5421, -7.5, 12, 8, -5, -10
COC(=O)C1C(=O)NC(SC)=C(C#N)C1c1ccccc1 (stereo not given)
    -2, 2802, 7.4, 11, 6, 10, -7
CCC1(c2ccc(F)cc2)NC(=O)N(CC(=O)Nc2cc(C)on2)C1=O (stereo not given)
    -28, 7770, -0.1, 7, 11, -1, ·
Nc1nonc1-n1nnc(C(=O)N/N=C/c2ccc(F)cc2)c1-c1ccc2c(c1)OCO2
    -11, 6009, ·, ·, ·, ·, -1
Cc1cc(C(=O)OCC(=O)Nc2ccc(S(N)(=O)=O)cc2)c2ccccc2n1
    -3, 3432, ·, ·, ·, ·, 2
COc1ccc(-c2csc(-c3ccc(C(=O)O)cc3)n2)cc1
    -81, 2100, 25, 2, -2, 24, 1
CCc1nc2ccccc2c(C(=O)OCC(=O)NC(=O)c2cccn2C)c1C
    -28, 3927, 2.8, -7, 6, 2, 9
CC1c2cccn2CCN1S(=O)(=O)c1ccc(F)cc1 (stereo not given)
    ·, 5614, 10, -4, -3, 3, ·
CC1(C)CC2(CC(C)(C)N1)OC(=O)N1CCc3ccccc3C12C (stereo not given)
    10, 4698, 9.3, ·, ·, 3, -7
O=C(c1ccc2ccccc2n1)N(CCO)Cc1ccccc1
    -29, 3762, 4.8, -1, 1, 2, -2
CC(NC(=O)COC(=O)C1CCN(c2ccc(C(F)(F)F)cn2)CC1)c1ccc(Br)cc1 (stereo not given)
    -7, 6128, -4.2, 0, -4, -4, 12
Cc1ccc(NC(=O)C(NCc2ccccn2)c2ccccc2)cc1 (stereo not given)
    -65, 3483, -3.1, -19, -2, -1, -5
CCCn1c(SCC(=O)N2CCCC(C)C2)nnc1-c1cccnc1 (stereo not given)
    -29, 3908, 2.6, -2, -3, 7, -1
CC(C)(CC(=O)O)Cc1nc(-c2ccc(Cl)cc2)no1
    -28, 4946, 7.8, 10, 16, 5, -9
O=C(/C=C\Nc1ccc2c(c1)OCO2)c1ccccn1
    80*, 2527, -10, 1, 11, -21, 11
O=C(O)C1Cc2ccccc2CN1C(=O)COc1ccc(Cl)cc1Cl (stereo not given)
    -40, 2048, 6.5, 11, 7, 13, 8
COc1ccc(CCNC(C)=O)cc1
    -11, 2933, 6.4, 1, 4, 4, 18
O=C(COC(=O)CNC(=O)c1cccc(Br)c1)Nc1nnc(-c2ccccc2)o1
    -14, 3837, 2.8, 5, 0, 1, ·
O=C(COC(=O)C1CCCO1)Nc1nc(-c2ccc(F)cc2)cs1 (stereo not given)
    -39, 3947, 1.9, -3, 7, 6, ·
CCSc1nc2ccccc2n1C(=O)c1ccc(S(=O)(=O)N2CCCCC2)cc1
    -70, 20953*, 3.9, -7, -2, 5, -3
O=C(O)CCC(=NNC(=O)CNC(=O)Cc1ccc(Cl)cc1)c1ccccc1
    ·, ·, 5.2, -6, 8, 6, ·
CCOC(=O)N1CCN(S(=O)(=O)N2CCCC(C(=O)NCc3ccc(OC)cc3)C2)CC1 (stereo not given)
    -26, 5249, ·, ·, ·, ·, 15
COc1ccc(N2C(=O)C3CCCN3C2c2ccc(F)cc2)cc1Cl (stereo not given)
    3, 5069, 3.0, 16, 0, 5, -7
CNC(=S)N(Cc1ccc(Cl)cc1)Cc1cccs1
    -19, ·, 8.4, 10, 14, -7, 0
COc1ccc(Cl)cc1C(=O)Nc1ccccc1N1CCN(C)CC1
    -6, 11026, 1.1, 13, 20, -5, -9
CCOC(=O)NC(=O)C(=CNc1ccccc1OC)C(=O)NC(=O)OCC
    -20, 2603, 0.4, 0, 8, 6, 0
Cc1ccccc1/C=N/n1c(COc2ccccc2)n[nH]c1=S
    -27, 3462, ·, ·, ·, ·, 6
COc1ccc(NC(=O)C(Cc2ccccc2)n2cccc2)cc1OC (stereo not given)
    -17, 3745, -0.2, 3, 2, 7, 10
O=C(CNC(=O)c1ccccc1Cl)OCC(=O)N1CCc2ccccc21
    -45, 4288, 6.5, -2, 14, 4, 10
Cn1cnnc1SCC(=O)Nc1ccc2nc(SCc3ccccc3Cl)sc2c1
    -9, 25037*, -2.2, 7, 14, -8, -1

# Entries shown so far containing a Cl atom (13):
# Fields: PrP 5UTR inh, Autofluor counter, RN4220 kill, Mtb hypoxia rep, Mtb hypoxia rep growth, ugtP null kill, BJeLR viability
O=C(c1ccc(Cl)c(Cl)c1)N1CCC(=O)N(C(COCc2ccccc2)Cc2ccccc2)CC1 (stereo not given)
    -15, 3862, 3.3, 19, 8, 2, -6
O=C(NNS(=O)(=O)c1cccc(Cl)c1Cl)c1cccc(S(=O)(=O)N2CCOCC2)c1
    -12, 2079, 5.7, -5, 2, 9, 0
Cc1ccsc1C(=O)OCC(=O)NCc1ccc(Cl)cc1
    -13, 2876, 6.2, 6, -4, 9, ·
O=C(NCCc1ccc(Cl)cc1)C1CCN(C(=O)N2CCOc3ccccc32)CC1
    -17, 6399, 9.5, 4, 6, 10, -4
O=C(NCc1ccccc1Cl)C1CCN(C(=O)c2sccc2-n2cccc2)CC1
    -19, 5421, -7.5, 12, 8, -5, -10
CC(C)(CC(=O)O)Cc1nc(-c2ccc(Cl)cc2)no1
    -28, 4946, 7.8, 10, 16, 5, -9
O=C(O)C1Cc2ccccc2CN1C(=O)COc1ccc(Cl)cc1Cl (stereo not given)
    -40, 2048, 6.5, 11, 7, 13, 8
O=C(O)CCC(=NNC(=O)CNC(=O)Cc1ccc(Cl)cc1)c1ccccc1
    ·, ·, 5.2, -6, 8, 6, ·
COc1ccc(N2C(=O)C3CCCN3C2c2ccc(F)cc2)cc1Cl (stereo not given)
    3, 5069, 3.0, 16, 0, 5, -7
CNC(=S)N(Cc1ccc(Cl)cc1)Cc1cccs1
    -19, ·, 8.4, 10, 14, -7, 0
COc1ccc(Cl)cc1C(=O)Nc1ccccc1N1CCN(C)CC1
    -6, 11026, 1.1, 13, 20, -5, -9
O=C(CNC(=O)c1ccccc1Cl)OCC(=O)N1CCc2ccccc21
    -45, 4288, 6.5, -2, 14, 4, 10
Cn1cnnc1SCC(=O)Nc1ccc2nc(SCc3ccccc3Cl)sc2c1
    -9, 25037*, -2.2, 7, 14, -8, -1
